# Screening data: PubChem BioAssay, National Center for Advancing Translational Sciences (NCATS)
# StopGo FLuc – Primary qHTS Assay for Foot and Mouth Disease Virus Antivirals against NCGC Sytravon and CBC Compound Libraries: Firefly Luciferase Signal; 120,000 compounds, 0.23% hits; Potency, µM (highest dose often 57.5 µM), for inactives: top-dose signal change, negative = less light; HEK cells with a luciferase reporter of 2A StopGo recoding; AID 1745856, 2022; active = well fitted falling curve with a large enough effect; inconclusive = small, poorly fitted or top-dose-only effect; inactive = no such curve, though single readings can be large or run the other way; further: nearly all actives have a fitted effect of over 60% in size; overnight with compound
# StopGo RLuc – Primary qHTS Assay for Foot and Mouth Disease Virus Antivirals against NCGC Sytravon and CBC Compound Libraries: Renilla Luciferase Signal; HEK cells with a luciferase reporter of 2A StopGo recoding; Potency, µM (highest dose often 57.5 µM), for inactives: at the highest dose signal change, negative = less light; 120,000 compounds, 0.32% hits; AID 1745857, 2022; active means well fitted falling curve with a large enough effect; inconclusive means small, poorly fitted or top-dose-only effect; inactive means no such curve, though single readings can be large or run the other way; further: nearly all actives have a fitted effect of over 55% in size; overnight with compound
# Active calls of the source: *; ? = inconclusive; & = joins results of further samples; [ ] = dose if it differs, or a comment. On the % scale 0 is the no-effect control and ±100 the full control effect; potency means the concentration at half of the fitted maximal effect. An unsorted share of the library; overall some 0.55% were active at least once.
canonical_smiles	StopGo FLuc	StopGo RLuc
COc1ccccc1NC(=O)CSc1ncc2c(n1)-c1ccccc1N(Cc1ccccc1C)S2(=O)=O	-13.4%	-17.2%
COc1ccc(C(CNC(=O)Cc2ccc(Cl)cc2)N2CCOCC2)cc1 (stereo not given)	-7.4%	1.9%
COc1ccc(NC(c2nnc(-c3ccccc3)o2)c2ccccc2F)cc1Cl (stereo not given)	13.6%	85.5%[activator]
CC(C)C1NC(=O)N(Cc2coc(-c3cccc(F)c3)n2)C1=O (stereo not given)	118.1%[activator]	16.4%
CC12CC3CC(C)(C1)CC(NC(=O)c1cccc4c(Br)cccc14)(C3)C2	-12.4%	-3.0%
O=[N+]([O-])c1ccc(O)c2cccnc12	31.4%[activator]	1.0%
O=C(Nc1ccc(C(=O)OCc2cc(=O)n3ccsc3n2)cc1)c1cccc(F)c1	48.7%[activator]	70.8%[activator]
O=C(c1ccc(C#Cc2ccccc2)cc1)N1CCN(C/C=C/c2ccccc2)CC1	9.6%	4.2%
COc1ccc(NC(=O)c2c(C)oc3ccc(O)c(CN4CCCCCC4)c23)cc1	-6.5%	-16.4%
CCN[C@@H](C)Cc1cccc(C(F)(F)F)c1	-16.0%	-7.4%
COC(=O)CCN(C)Cc1sccc1C	7.8%	2.5%
O=C(/C=C/c1ccc(Cl)cc1)N1CCC(c2nc3ccccc3o2)CC1	118.6%&51.6%[activator]	1.9%&-6.2%
Cc1ccc(-c2c(C)nn3c2NC(=O)CCC3=O)cc1S(=O)(=O)NCc1ccc(F)cc1	-4.3%	19.8%
Cc1ccc(C)c(NC(=O)Cn2cc(S(=O)(=O)NC(C)C)c(S(=O)(=O)NC(C)C)c2)c1	-14.0%	-1.0%
Cc1ccsc1CNCC1CCCO1 (stereo not given)	-0.8%	-6.2%
COc1ccc(-n2c(=O)c3ccccc3n(CC(=O)Nc3ccccc3OC)c2=O)cc1	-8.8%&-14.2%	-4.2%&-6.4%
Cc1ccc(O)c(-c2n[nH]c3c2C(c2ccccc2F)N(Cc2ccco2)C3=O)c1 (stereo not given)	-16.4%	29.1%
CCS(=O)(=O)N1CCc2cc(C(=O)Nc3cccc(NC(C)=O)c3)ccc21	51.3%[activator]	66.3%[activator]
Cn1nc(C(=O)NC2CCCCCC2)c(Cl)c1C(F)(F)F	146.4%[activator]	-6.3%
CCOC(=O)c1cc(OC(=O)c2ccc(C)cc2)n(-c2ccccc2)n1	152.5%[activator]	6.5%
COc1ccc(Nc2nc(COC(=O)c3ccc4c(c3)C(=O)N(C)C4=O)cs2)cc1	2.0%	-9.5%
COc1ccc(/C(=N/OC(=O)c2ccccc2Cl)c2nccc3cc(OC)c(OC)cc23)cc1OC	20.6%	21.5%
O=C(Nc1ccccc1C(F)(F)F)c1c(Cl)cccc1Cl	20.3%	-3.5%[1.06 µM]
O=C(CN(c1cccc(Br)c1)S(=O)(=O)c1ccccc1)N1CCc2ccccc2C1	?	314.4%[activator]
CCOC(=O)c1cnc2cc(C(F)(F)F)ccc2c1Nc1cc(C)ccc1OC	-5.7%	-7.0%

# Given with two lines to a compound: four of the compounds above
# Order of values – StopGo FLuc, StopGo RLuc
Cc1ccc(-c2c(C)nn3c2NC(=O)CCC3=O)cc1S(=O)(=O)NCc1ccc(F)cc1
 : -4.3%, 19.8%
Cc1ccc(C)c(NC(=O)Cn2cc(S(=O)(=O)NC(C)C)c(S(=O)(=O)NC(C)C)c2)c1
 : -14.0%, -1.0%
Cc1ccsc1CNCC1CCCO1 (stereo not given)
 : -0.8%, -6.2%
COc1ccc(-n2c(=O)c3ccccc3n(CC(=O)Nc3ccccc3OC)c2=O)cc1
 : -8.8%&-14.2%, -4.2%&-6.4%

# Single records (already shown). Values in the order: StopGo FLuc	StopGo RLuc
# O=C(/C=C/c1ccc(Cl)cc1)N1CCC(c2nc3ccccc3o2)CC1 reads 118.6%&51.6%[activator]	1.9%&-6.2%
# O=C(c1ccc(C#Cc2ccccc2)cc1)N1CCN(C/C=C/c2ccccc2)CC1 reads 9.6%	4.2%
# CCN[C@@H](C)Cc1cccc(C(F)(F)F)c1 reads -16.0%	-7.4%
# O=[N+]([O-])c1ccc(O)c2cccnc12 reads 31.4%[activator]	1.0%
# Cc1ccc(O)c(-c2n[nH]c3c2C(c2ccccc2F)N(Cc2ccco2)C3=O)c1 (stereo not given) reads -16.4%	29.1%

# (list continues)
canonical_smiles	StopGo FLuc	StopGo RLuc
COCc1nc2ccccc2n1Cc1cccc(C)c1	46.3%[activator]	56.8%[activator]
CC1CCN(c2ccc(-c3cccc(NS(=O)(=O)c4ccc(F)cc4F)c3)nn2)CC1	-27.6%	?
Cc1ccc(C2CCCN2C(=O)c2cc(C)on2)cc1 (stereo not given)	-4.3%	-8.8%
COc1ccccc1CC(=O)NCc1cccc(C(F)(F)F)c1	105.5%[activator]	0.0%
CCOc1ccccc1N(C)C(=O)c1cc2c(s1)-c1ccccc1OC2	-6.9%	11.8%
Cc1cc(OCC(=O)N2CCCCC2CCN2CCCC2)ccc1Cl (stereo not given)	-5.4%	-5.8%
CCCCCCCOc1ccc(C(=O)c2ccccc2)cc1	15.7%	15.6%
CCOc1ccccc1CNC(=O)CCn1ccc2cc(S(=O)(=O)N3CCCCC3)ccc21	2.3%	217.4%[activator]
CCN(Cc1cccc(F)c1)C(=O)Cn1nnn(-c2cccs2)c1=O	18.1%	2.8%
CCN(C(=O)c1cccs1)c1nc(-c2ccc(C)cc2)cs1	185.2%[activator]	3.8%
CCOc1ccc(-c2nc(CSCC(=O)NCc3ccc(Cl)cc3)c(C)o2)cc1	-28.0%	-4.4%
CC(C)CNC(=O)NC(=O)CN(C)C1CCCCCC1	27.8%	7.4%
Cn1c(=O)c2nc3ccc(NC(=O)C(F)(F)F)cc3nc2n(C)c1=O	?	?
CC(C)Oc1ccc(C(=O)Nc2nc3c(s2)CC(C(C)(C)C)CC3)cc1 (stereo not given)	0.0%	11.4%
CC12CC3CC(C)(C1)CC(NCc1cccnc1)(C3)C2	-12.6%	3.4%
Cc1cc(NC(=O)CCNC(=O)c2ccc3ccccc3c2)n[nH]1	20.6%	0.4%
Nc1ccc(C(=O)N2CC3CC(CN(Cc4ccccc4)C3)C2)cc1	-8.4%[11.5 µM]	-0.3%
CCCc1nnc2sc(-c3ccc(CNC(=O)c4cccc(F)c4)cc3)nn12	2.4%	1.5%
COc1ccc(OCC(=O)Nc2cccc(-c3nc4cc(C)c(C)cc4o3)c2)cc1	179.6%[activator]	-4.5%
Cc1ccc2nc(/C(C#N)=C/c3sccc3C)[nH]c2c1	0.0%	114.9%[activator]
Cc1ccc(SCCOc2ccccc2C=O)cc1	256.3%[activator]	26.0%
CCOC(=O)c1ccccc1NC(=O)CSc1ncc2c(n1)-c1ccccc1N(CC)S2(=O)=O	-17.0%	-11.6%
CCN(CC)c1nc2c(c(=O)n(C)c(=O)n2C)n1CC(O)COc1ccccc1 (stereo not given)	-6.5%	-15.0%
O=C(NCCc1c[nH]c2ccccc12)C1CCN(c2nc(Cl)nc3nc[nH]c23)CC1	3.9%	-0.2%
COCCSc1ccc2c(c1)OCCCO2	133.3%[activator]	-6.2%

# Six of the compounds above, with two lines to a compound.
# Screens in order: StopGo FLuc | StopGo RLuc
CC(C)Oc1ccc(C(=O)Nc2nc3c(s2)CC(C(C)(C)C)CC3)cc1 (stereo not given)
 : 0.0% | 11.4%
CCN(Cc1cccc(F)c1)C(=O)Cn1nnn(-c2cccs2)c1=O
 : 18.1% | 2.8%
Cc1ccc(C2CCCN2C(=O)c2cc(C)on2)cc1 (stereo not given)
 : -4.3% | -8.8%
Cn1c(=O)c2nc3ccc(NC(=O)C(F)(F)F)cc3nc2n(C)c1=O
 : ? | ?
COCCSc1ccc2c(c1)OCCCO2
 : 133.3%[activator] | -6.2%
COc1ccccc1CC(=O)NCc1cccc(C(F)(F)F)c1
 : 105.5%[activator] | 0.0%

# Remaining list, next part:
canonical_smiles	StopGo FLuc	StopGo RLuc
CCc1ccc(N(CC)C(=O)c2cc3c(=O)oc4ccc(C)cc4c3s2)cc1	0.0%	-9.9%
COc1ccc(NC(=O)Cc2nnc(SCC(=O)NC34CC5CC(CC(C5)C3)C4)n2C)cc1	21.0%	-1.7%
Cc1ccc(-c2cc(C(=O)N(Cc3ccc(C(C)(C)C)cc3)Cc3ccco3)no2)cc1	1.6%	3.0%
Cc1cccc(NC(=O)c2sc3nc4c(cc3c2N)CN(Cc2ccccc2)CC4)c1	96.9%[activator]	-5.7%
CCCN(CCC)C(=O)Cn1c(=O)n(Cc2ccc(C(=O)NCCc3ccc(OC)c(OC)c3)cc2)c(=O)c2ccccc21	0.9%	0.1%
CC(C)[N+](C)(C)CC(O)COc1cccc2ccccc12 (stereo not given)	-0.7%[11.5 µM]	3.0%
CCOc1ccc(C(=O)Nc2cccc(OCc3cc(=O)n4cc(C)sc4n3)c2)cc1	-19.7%	-15.8%
CCC(C(=O)Nc1cc(-c2nc3cccnc3s2)ccc1C)c1ccccc1 (stereo not given)	0.0%	-5.5%
O=C(COc1cccc(Cl)c1)N1CCC(c2nc3ccccc3s2)CC1	?	?
Cc1ccccc1C(=O)Oc1ccc(F)cc1C(=O)/C=C/c1ccccc1F	11.5%	52.5%[activator]
COc1cccc(OC)c1C(=O)Nc1ccc2oc(-c3ccc(F)cc3)cc(=O)c2c1	271.6%[activator]	87.9%[activator]
O=S(=O)(NCc1csc(Br)c1)c1ccc(Br)s1	12.6%	278.8%[activator]
O=C(Nc1cccc(Cl)c1SC(F)F)C1CCCC1	-5.9%	-0.7%
COc1ccc(OC)c(NC(=O)c2ccc3c(=O)n4c(nc3c2)CCCCCC4)c1	-7.8%	-16.5%
CCOC(CNC(=O)c1ccc2c(c1)ncn2-c1ccc(OC)cc1)OCC	-2.9%	11.3%
COc1ccc(-n2nc3c(N4CCCC(C(=O)NCCc5ccccc5C)C4)nnc(C)c3c2C)cc1 (stereo not given)	-0.8%	67.5%[activator]
